miR-21 FLuc: qHTS Assay for Modulators of miRNAs and/orActivators of miR-21; HeLa miR-21 FLuc reporter, luciferase, 48 h; 340,000 tested, under 10 active; Potency, µM (doses to about 38.3 µM), for the others: at the top dose reporter change, positive = more light; active = well fitted rising curve with a large enough effect; inconclusive = small, poorly fitted or top-dose-only effect; inactive = no such curve, though single readings can be large or run the other way;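 further: % of control where 0% means no effect; miR-21 action dims this reporter so a rising signal means less miR-21 action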
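HeLa miR-21-FLuc reporter line, endogenous miR-21; 2000 cells/well in DMEM/10% FBS; compound titration up to ~40uM final, 48 h, 37 degree Celsius; luciferase detection reagent, 15 min lysis, CCD luminescence.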
Numbers without * were called inactive. Only part of the results is shown, so the mix of outcomes need not match the whole.

What do the screens show for `Cc1ccc(-c2nc(SCC(=O)N3CCc4ccccc43)c3c(=O)n(C)c(=O)n(C)c3n2)cc1`?
miR-21 FLuc: 0.6%

What do the screens show for `COc1cc(OC)c(NC(=O)C(NS(=O)(=O)c2cccc3nsnc23)c2ccccc2)cc1Cl` (stereo not drawn)?
miR-21 FLuc: 9.1%

What do the screens show for `CC(C)c1ccc(NC(=O)c2ccc3oc(=O)c(S(=O)(=O)c4ccc(F)cc4)cc3c2)cc1`?
miR-21 FLuc: -10.8%

Results for Cc1ccc(CSCC(=O)N2CCN(c3cc(Cl)ccc3C)CC2)cc1 ?
miR-21 FLuc: 6.1%

How did CCN(C(=O)c1cc2c(s1)-c1ccccc1OC2)c1cc(Cl)ccc1OC do in these assays?
miR-21 FLuc: 22.1%

How did CCCOc1ccc(C(=O)Nc2ccc(-c3cc4ccccc4oc3=O)c(C)c2)cc1 do in these assays?
miR-21 FLuc: 17.3%

Results for COc1cccc(-c2nc(C(N)=O)c3c(n2)n(-c2ccc4c(c2)OCO4)c(=O)n3C)c1OC ?
miR-21 FLuc: -2.2%

What do the screens show for `Cc1c(C)n(Cc2ccccc2)c2ccc(C(=O)NCCc3ccccc3Cl)cc12`?
miR-21 FLuc: 0.5%

What do the screens show for `O=C(Nc1cccc(C(=O)OCc2cc(=O)n3nc(C4CC4)sc3n2)c1)c1cccc(F)c1`?
miR-21 FLuc: -0.9%

How did Cc1ccccc1NC(=O)CSCn1nnc2c(=O)[nH]c(Cc3ccc(F)cc3)nc21 do in these assays?
miR-21 FLuc: -1.5%

Results for CCOC(=O)c1ccc(NC(=O)CC2C(=O)N(c3ccc(F)cc3)C(=O)N2Cc2cccnc2)cc1 (stereo not drawn) ?
miR-21 FLuc: 7.7%

What do the screens show for `CCCNC(=O)c1cnn2c(C)c(Cc3c(C)cc(C)cc3C)c(C)nc12`?
miR-21 FLuc: 20.1%

Results for CCOC(=O)c1c(C)c(-c2ccccc2)n(CC(=O)Nc2ccc(OCC)cc2)c1C ?
miR-21 FLuc: -0.4%

What do the screens show for `CCCCCn1c(-c2ccc(OC)c(OC)c2)nc2ccccc21`?
miR-21 FLuc: inconclusive

How did CCOC(=O)c1[nH]c2ccccc2c1NC(=O)c1ccc(OC)c(OC)c1 do in these assays?
miR-21 FLuc: 2.2%

Results for CCC(=O)N1CCc2cc(CNC(=O)c3cccc(N(C)C)c3)ccc21 ?
miR-21 FLuc: -7.2%

What do the screens show for `CCN(CC)S(=O)(=O)c1nnc(NC(=O)COc2ccc(C)cc2)s1`?
miR-21 FLuc: -27.6%

How did CCOc1ccccc1NC(=O)c1nnn(CC(=O)Nc2ccc(OC)c(OC)c2)c1N do in these assays?
miR-21 FLuc: -15.2%

Results for COc1cc(NC(=O)c2nc3ccccc3nc2N2CCCCC2)cc(OC)c1OC ?
miR-21 FLuc: 7.5%

How did COc1ccc(CNC(=O)c2cnc3sc(N4CCCC4)nn3c2=O)cc1OC do in these assays?
miR-21 FLuc: 6.6%

What do the screens show for `Cc1ccc(C)c(CN2CCCN(Cc3ccc(F)cc3)S2(=O)=O)c1`?
miR-21 FLuc: -0.1%

How did CCOC(=O)C1CCCN(C(=O)c2ccc3c(c2)N(Cc2cccc(Cl)c2)C(=O)c2ccccc2S3(=O)=O)C1 (stereo not drawn) do in these assays?
miR-21 FLuc: 5.8%

Results for Cc1cc(C)cc(N2C(=O)CC(c3ccc(C(F)(F)F)cc3)C3=C2COC3=O)c1 (stereo not drawn) ?
miR-21 FLuc: 1.4%

What do the screens show for `COc1ccc(OCC(=O)Nc2cccc(C(=O)OCc3cc(=O)n4nc(C)sc4n3)c2)cc1`?
miR-21 FLuc: -0.2%

Results for CCOc1ccccc1NC(=O)Nc1cc2c(cc1N1CCCCC1)n(CC)c(=O)n2CC ?
miR-21 FLuc: 13.8%

How did COc1ccc(-c2cn3c(n2)sc2cc(C(=O)Nc4ccc(F)cc4Cl)ccc23)cc1 do in these assays?
miR-21 FLuc: -39.9%

Results for CCN(c1ccccc1C)S(=O)(=O)c1nnc(NC(=O)c2ccccc2C)s1 ?
miR-21 FLuc: -59.5%

Results for Cc1ccc(OCC(=O)Nc2ccc(C(=O)OCc3cc(=O)n4ccsc4n3)cc2)cc1C ?
miR-21 FLuc: 10.5%

What do the screens show for `COCCCNC(=O)c1ccc(C)c(-n2c(C)nc3cccnc32)c1`?
miR-21 FLuc: -0.9%

What do the screens show for `CCn1c2ccccc2c2cc(CN3CCN(Cc4ccccc4Cl)CC3)ccc21`?
miR-21 FLuc: 2.6%

How did COc1ccc(CNC(=O)c2cc3c(s2)-c2ccccc2OC3)cc1 do in these assays?
miR-21 FLuc: 2.9%

How did Cc1ccc2nc(COc3ccccc3NC(=O)C(C)(C)C)cc(=O)n2c1 do in these assays?
miR-21 FLuc: 5.1%

What do the screens show for `CCOc1ccccc1CNc1nc2nc(C)c(CC(=O)OC)c(=O)n2[nH]1`?
miR-21 FLuc: 4.2%

What do the screens show for `COc1cccc(NC(=O)c2ccc(CNS(=O)(=O)c3ccc4c(c3)C(C)(C)C(=O)N4C)cc2)c1`?
miR-21 FLuc: inconclusive

Results for COC(=O)N1C(=O)[C@@](CC(C)C)(c2ccccc2)N1C(=O)OC ?
miR-21 FLuc: -0.9%

How did CCOC(=O)C(C)NC(=O)C1CCN(c2ncnc3c2nc2n3CCCCC2)CC1 (stereo not drawn) do in these assays?
miR-21 FLuc: -2.0%

Results for CCOC(=O)c1c(C)[nH]c(CCC(=O)NCc2cc(OC)c(OC)c(OC)c2)c1C ?
miR-21 FLuc: 1.5%

How did COc1ccc(Cc2nc3c4cnn(-c5cccc(F)c5)c4ncn3n2)cc1 do in these assays?
miR-21 FLuc: 1.5%

Results for COc1ccccc1CNC(=O)c1ccc(Cn2c(SCc3ccccc3)nc3cccnc32)cc1 ?
miR-21 FLuc: -1.0%

How did O=C(CCc1ccccc1)NCc1ccc2c(c1)CCN2C(=O)c1ccccc1 do in these assays?
miR-21 FLuc: 22.2%

What do the screens show for `COc1cc(OC)c(NC(=O)N2CCN3CCCCC3C2)cc1Cl` (stereo not drawn)?
miR-21 FLuc: -0.8%

How did CCc1ccc(NC(=O)CSc2nc3n[nH]c(C)c3c(=N)n2-c2ccccc2C)cc1 do in these assays?
miR-21 FLuc: 7.1%

Results for COc1ccc(NC(=O)c2nc(S(=O)(=O)Cc3ccc(C)cc3)ncc2Cl)cc1 ?
miR-21 FLuc: inconclusive

Results for Cc1ccc(OC(=O)c2cc(-c3ccc(Cl)cc3)on2)c(C)c1 ?
miR-21 FLuc: -4.3%

What do the screens show for `Cc1ccc(CN2CCCn3nc(C(=O)NCCc4ccc(Cl)cc4)cc3C2=O)cc1`?
miR-21 FLuc: 2.0%

Results for CCOc1ccccc1NC(=O)c1nn(-c2ccc(C)cc2)c(=O)n(C)c1=O ?
miR-21 FLuc: 1.6%

How did Cn1nnnc1SCCCNCc1ccccc1OCc1ccc(F)cc1 do in these assays?
miR-21 FLuc: 1.8%

What do the screens show for `COc1ccc(Cl)cc1NC(=O)Cn1c(=O)n(Cc2ccc(F)cc2)c(=O)c2cccnc21`?
miR-21 FLuc: 4.5%

How did N#Cc1c(-n2ncnc2-c2ccc(F)cc2)sc2c1CCCCC2 do in these assays?
miR-21 FLuc: -97.8%

Results for Clc1ccc(CN2CCc3nc(N4CCN(c5ccccn5)CC4)ncc3C2)cc1 ?
miR-21 FLuc: 7.8%

Results for Cc1ccc(NC(=O)c2ccc3[nH]c(C)cc(=O)c3c2)cc1 ?
miR-21 FLuc: 3.0%

Results for O=C(CSc1nc2ccccc2n1CC(=O)Nc1ccc(F)cc1F)Nc1ccc(F)cc1 ?
miR-21 FLuc: -2.3%

What do the screens show for `COC(=O)CNC(c1ccccc1)c1cc(Br)ccc1NC(=O)c1cc(OC)c(OC)c(OC)c1` (stereo not drawn)?
miR-21 FLuc: 16.5%

What do the screens show for `COc1cccc2cc(-c3nc(-c4cccs4)no3)c(=O)oc12`?
miR-21 FLuc: -59.1%

How did Cc1ccc(C)c(N2CCN(c3cc(C)nc4c(-c5ccc(Cl)cc5)c(C)nn34)CC2)c1 do in these assays?
miR-21 FLuc: 0.2%

Results for Cc1c(Cl)ccc2sc(NC(=O)c3ccc(S(=O)(=O)N4CCCc5ccccc54)cc3)nc12 ?
miR-21 FLuc: 19.2%

Results for CCc1ccc(-n2nc(C)c3c(C(=O)Nc4cc(C)ccc4C)cc(C)nc32)cc1 ?
miR-21 FLuc: -0.9%

How did CCOc1ccc(-c2nc(Cn3c(=O)cc(-c4ccccc4)c4c(C)nn(C)c43)c(C)o2)cc1 do in these assays?
miR-21 FLuc: -18.5%

How did CC(C)Oc1ccc(CNC(=O)c2ccc(Cn3c(=O)c4cccn4c4cccnc43)cc2)cc1 do in these assays?
miR-21 FLuc: 1.4%

How did CCOc1ccccc1NC(=O)c1c(NC(=O)Cc2ccccc2)sc2c1CCCC2 do in these assays?
miR-21 FLuc: -1.6%

Grouped by structure, the compounds so far with an NH in an aromatic ring (6)
How did Cc1ccccc1NC(=O)CSCn1nnc2c(=O)[nH]c(Cc3ccc(F)cc3)nc21 do in these assays?
miR-21 FLuc: -1.5%

How did CCOC(=O)c1[nH]c2ccccc2c1NC(=O)c1ccc(OC)c(OC)c1 do in these assays?
miR-21 FLuc: 2.2%

What do the screens show for `CCOc1ccccc1CNc1nc2nc(C)c(CC(=O)OC)c(=O)n2[nH]1`?
miR-21 FLuc: 4.2%

Results for CCOC(=O)c1c(C)[nH]c(CCC(=O)NCc2cc(OC)c(OC)c(OC)c2)c1C ?
miR-21 FLuc: 1.5%

How did CCc1ccc(NC(=O)CSc2nc3n[nH]c(C)c3c(=N)n2-c2ccccc2C)cc1 do in these assays?
miR-21 FLuc: 7.1%

Results for Cc1ccc(NC(=O)c2ccc3[nH]c(C)cc(=O)c3c2)cc1 ?
miR-21 FLuc: 3.0%

Part of the list above in order of heavy-atom count, falling.
What do the screens show for `COc1ccc(Cl)cc1NC(=O)Cn1c(=O)n(Cc2ccc(F)cc2)c(=O)c2cccnc21`?
miR-21 FLuc: 4.5%

Results for COc1cc(NC(=O)c2nc3ccccc3nc2N2CCCCC2)cc(OC)c1OC ?
miR-21 FLuc: 7.5%

What do the screens show for `CCOc1ccccc1CNc1nc2nc(C)c(CC(=O)OC)c(=O)n2[nH]1`?
miR-21 FLuc: 4.2%

Next part:
Results for Cc1ccc(NS(=O)(=O)c2ccc3c(c2)NC(=O)C(C)C(=O)N3)cc1F (stereo not drawn) ?
miR-21 FLuc: 0.6%

Results for CC(Sc1nc2c(c(=O)[nH]1)CCCC2)C(=O)Nc1cc(C(F)(F)F)ccc1Cl (stereo not drawn) ?
miR-21 FLuc: 2.1%

What do the screens show for `CCOCCCN(Cc1ccco1)S(=O)(=O)c1cc2c(cc1Cl)NC(=O)CO2`?
miR-21 FLuc: 26.8%

How did COc1ccc(OC)c(CNCc2c(C(=O)O)n(Cc3ccccc3)c3cc(OC)ccc23)c1 do in these assays?
miR-21 FLuc: -1.2%

Results for COc1cccc(CNC(=O)C2CCN(S(=O)(=O)c3ccc4c(c3)CCCN4C(C)=O)CC2)c1 ?
miR-21 FLuc: 5.6%

Results for COc1ccc(CCNC(=O)C(C)n2c(=O)cc(-c3ccccc3)c3c(C)nn(C)c32)cc1OC (stereo not drawn) ?
miR-21 FLuc: -13.0%

Results for O=C(Nc1ccc(N2CCOCC2)c(C(=O)O)c1)c1ccc(Br)cc1 ?
miR-21 FLuc: -3.4%

Results for CCC(=O)Nc1cc(-c2nc3ccccc3s2)c(Cl)cc1Cl ?
miR-21 FLuc: -3.1%

How did COc1ccccc1NC(=O)Cn1ccn(-c2cc(C)cc(C)c2)c(=O)c1=O do in these assays?
miR-21 FLuc: -0.1%

What do the screens show for `CCOc1cc(CNC(=O)c2ccc3c(c2)NC(=O)C2CCCCN32)cc(OCC)c1OCC` (stereo not drawn)?
miR-21 FLuc: 9.3%

How did CCN(CC)S(=O)(=O)c1ccc2c(c1)N(CC(=O)NCc1ccc(F)cc1)C(=O)CO2 do in these assays?
miR-21 FLuc: 0.4%

How did CCOC(=O)c1c(C)oc2nc(C)nc(Nc3cc(C)ccc3OC)c12 do in these assays?
miR-21 FLuc: -1.8%

What do the screens show for `CCOC(=O)c1[nH]c(C)c(CCC(=O)N2CCN(c3cccc(C)c3C)CC2)c1C`?
miR-21 FLuc: 24.7%

What do the screens show for `CCOc1ccc(NS(=O)(=O)c2ccc(C(=O)N(C)C)s2)cc1`?
miR-21 FLuc: -5.9%

What do the screens show for `COC(=O)c1c(NC(=O)/C=C/c2ccc(OC)c(OC)c2)sc2c1CCC2`?
miR-21 FLuc: -4.2%

Results for CCN(CC)CCNC(=O)c1sc2ncccc2c1-n1cccc1 ?
miR-21 FLuc: -2.5%

How did N#Cc1cccc(NC(=O)Cn2nc(Cc3ccncc3)c3ccccc3c2=O)c1 do in these assays?
miR-21 FLuc: 3.4%

What do the screens show for `O=[N+]([O-])c1cc(-c2nc(-c3ccccc3)no2)ccc1NC1CCCCC1`?
miR-21 FLuc: 0.9%

What do the screens show for `COc1cccc(C2CC(=O)Nc3c2c(=O)[nH]c2ncnn32)c1OC` (stereo not drawn)?
miR-21 FLuc: -4.3%

How did CCn1ccc2cc(S(=O)(=O)N3CCC(C(=O)NCCc4ccccc4)CC3)ccc21 do in these assays?
miR-21 FLuc: -0.1%

How did Cc1nc2ccc(S(=O)(=O)N(CC(=O)Nc3cccc(F)c3)Cc3ccccc3)cc2s1 do in these assays?
miR-21 FLuc: 1.2%

How did CCOC(=O)c1[nH]c2ccccc2c1NC(=O)c1ccc(OC(C)C)cc1 do in these assays?
miR-21 FLuc: -8.2%

Results for CSc1ccc(CCNC(=O)c2ccc3c(c2)nc2n3CCOC2)cc1 ?
miR-21 FLuc: -21.0%

How did Cc1ccccc1Cn1c(=O)n(-c2ccc(Cl)cc2)c(=O)c2c3c(sc21)CCCC3 do in these assays?
miR-21 FLuc: 1.1%

Results for Cc1c(C)n(Cc2ccc(F)cc2)c2ccc(C(=O)NCc3ccco3)cc12 ?
miR-21 FLuc: 8.5%

What do the screens show for `O=C(COc1ccc(F)cc1)Nc1cccc(OCc2cc(=O)n3ccccc3n2)c1`?
miR-21 FLuc: -13.3%

Results for CCOc1ccc(NC(=O)c2cnn(-c3ccc(C)c(Cl)c3)c2C2CCNCC2)cc1 ?
miR-21 FLuc: -0.5%
